Vif A3G: inhibitors of Vif binding to APOBEC3G peptide, primary screen, biochemical, TR-FRET, GST-Vif 1-94, biotin-A3G peptide, dose response retest (AID 1117319) | Virion infectivity factor (Human immunodeficiency virus type 1 group M subtype B (isolate … | TR-FRET GST-Vif / biotin-A3G peptide binding; higher % means a stronger effect; test concentration not given here; strong numbers were not always called active | inhibition, %; hits with a dose series show IC50 in µM | 260,000 tested, 0.57% active;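 active = above the screen mean plus three standard deviations and confirmed in dose response; inconclusive = results disagree or hit not tested in dose response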;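 also: Vif residues 1-94 fused to GST binding biotinylated APOBEC3G peptide 110-148; 0% = full assay without inhibitor and 100% = GST in place of GST-Vif; retest series ran down from 100 µM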
UCH37 inh: inhibitors of human UCH37 deubiquitinase, primary screen, biochemical, Ub-AMC cleavage, fluorescence; Ubiquitin carboxyl-terminal hydrolase isozyme L5 (Homo sapiens), Q9Y5K5; purified proteasome/UCH37; AID 588478, 2011; 330,000 tested, 0.33% active; inhibition, % (test concentration not listed);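 active = mean of two replicates above 20%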;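 also: 0% = compound-free wells with enzyme and 100% = wells lacking proteasome; stock transfer was 100 nL into about 20 µL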
Target sequence (Q9Y5K5 whole entry, looked up): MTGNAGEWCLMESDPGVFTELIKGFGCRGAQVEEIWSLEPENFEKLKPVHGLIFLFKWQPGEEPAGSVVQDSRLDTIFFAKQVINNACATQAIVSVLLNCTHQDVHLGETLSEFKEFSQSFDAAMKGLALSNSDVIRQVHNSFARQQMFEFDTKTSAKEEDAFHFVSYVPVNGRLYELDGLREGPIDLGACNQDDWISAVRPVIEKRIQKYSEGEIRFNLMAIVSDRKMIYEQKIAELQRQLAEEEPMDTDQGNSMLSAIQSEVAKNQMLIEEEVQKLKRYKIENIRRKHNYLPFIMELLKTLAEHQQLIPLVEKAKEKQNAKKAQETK
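assay system = human UCH37 enzyme supplied as purified proteasome complex | amount = proteasome at 0.15 nM in the dispensed enzyme solution | schedule = 30 min compound-proteasome preincubation then 25 min substrate reaction, room temperature | measured by = fluorescence, ex 355 nm, em 460 nm | benchmarks = no-proteasome wells (full inhibition) and compound-free wells (no inhibition)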
Ecoli growth: E. coli growth inhibition, primary screen, OD600; Escherichia coli growth, 23 h; hits give low values; OD600 absorbance (concentration not given with the values); 330,000 tested, 0.21% active;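 active = OD600 absorbance below the run mean of sample wells minus 3.6 SD, in any replicate, cut at about 0.56 in these data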;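 also: stock transfer was 300 nL into about 60 µL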
FGF22 binding: binders of human FGF22 protein, primary screen, FGF22 synaptogenesis inhibitor project, biophysical, thermal shift, single point. 340,000 tested, 1.5% active. Fibroblast growth factor 22 (Homo sapiens), Q9HCT0. calls only at 9.99 µM. recombinant FGF22 thermal shift, SYPRO orange fluorescence; percent of sucrose octasulfate shift, DMSO zero. AID 651658, 2012;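 active = melting point raised past a set limit in the mean and every replicate; inconclusive = no clear call; three in four hits are not shown here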
Target sequence (Q9HCT0 whole entry, looked up): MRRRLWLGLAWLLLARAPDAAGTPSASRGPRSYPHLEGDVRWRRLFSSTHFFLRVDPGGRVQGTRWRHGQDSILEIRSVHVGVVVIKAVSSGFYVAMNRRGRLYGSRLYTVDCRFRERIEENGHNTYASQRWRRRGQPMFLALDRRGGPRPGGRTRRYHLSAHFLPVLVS
RanGTP-Impb inh: inhibitors of RanGTP-importin-beta interaction, primary screen, biochemical, FRET, CFP-Ran, YFP-importin-beta, homogeneous; Ran GTPase (GTP-bound) - importin-beta complex; cell-free CFP-Ran/YFP-importin-beta FRET ratio; inhibition, % (concentration not given with the values); 300,000 tested, 1.1% active; AID 2216, 2009;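 active = most replicates above 15%; inconclusive = exactly half above 15%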;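 also: 0% = DMSO wells and 100% = Ran loaded with GDP instead of GTP; wells of about 40 µL received 100 nL stock; the first replicate is given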
HNF4A DNA FP: change in binding of human HNF4A to DNA, primary screen, biochemical, fluorescence polarization, FITC-DNA; Hepatocyte nuclear factor 4-alpha (Homo sapiens), P41235; 1 h; activity change, % at 10 µM; 360,000 tested, 0.3% active; in the data active = activity change above about 30%, passing the limit was not always enough;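 also: controls were the assay level and a saturating level of protein; the project sought stronger binding though the title names inhibitors; some compounds called inactive have numbers as strong as hits; positive values seem to mean higher polarization but the record does not say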
AF4-AF9 inh: inhibitors of AF4 peptide binding to AF9, primary screen, biochemical, AlphaScreen, biotin-AF4 peptide, FLAG-AF9, single point; Protein AF-9 (Homo sapiens), P42568; 350,000 tested, 0.47% active; inhibition, % at 10 µM;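 active = every replicate reaching a set inhibition limit, whatever the replicate mean, cut at about 25% in these data; inconclusive = mean inhibition reaches that limit but some replicates miss it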;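 also: 0% = plate neutral control median and 100% = total signal loss; the record names both 10 and 1 µM as test concentration; the first replicate is given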
Target sequence (P42568 whole entry, looked up): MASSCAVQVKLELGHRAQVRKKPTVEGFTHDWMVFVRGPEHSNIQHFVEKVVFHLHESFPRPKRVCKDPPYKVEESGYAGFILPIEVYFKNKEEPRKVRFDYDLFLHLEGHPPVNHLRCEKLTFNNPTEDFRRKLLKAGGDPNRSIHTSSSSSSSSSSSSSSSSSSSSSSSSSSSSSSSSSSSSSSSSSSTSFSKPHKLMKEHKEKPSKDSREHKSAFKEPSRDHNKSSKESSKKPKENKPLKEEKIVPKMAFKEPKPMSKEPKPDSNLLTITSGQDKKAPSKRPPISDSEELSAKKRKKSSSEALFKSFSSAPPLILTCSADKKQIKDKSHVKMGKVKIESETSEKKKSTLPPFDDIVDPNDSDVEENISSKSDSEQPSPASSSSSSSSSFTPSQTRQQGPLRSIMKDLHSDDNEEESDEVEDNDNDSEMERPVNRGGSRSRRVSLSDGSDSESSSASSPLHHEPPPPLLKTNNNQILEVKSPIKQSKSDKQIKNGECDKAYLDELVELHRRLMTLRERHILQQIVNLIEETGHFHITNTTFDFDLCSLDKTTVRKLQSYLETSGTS
Active calls of the source: *; i = inactive; ? = inconclusive; . = no result given; & = joins results of further samples. Some of the compounds tested (hit frequency here may not be typical).

SMILES	Vif A3G	UCH37 inh	Ecoli growth	FGF22 binding	RanGTP-Impb inh	HNF4A DNA FP	AF4-AF9 inh
CCOc1ccsc1C(=O)OC	5.9%	1.7	0.698	i	1.2	1.4	.
O=C(O)C(c1ccccc1)C(O)c1ccc2c(c1)OCO2 (stereo not given)	-6.8%	0.6	0.727	i	.	-2.3	1.1
COc1ccccc1C(=O)c1cc2ccc(O)cc2oc1=O	-3.5%	.	.	i	54.8*	-0.7	-2.8
O=C(O)c1ccc(NC(=O)c2cccc(C(=O)Nc3ccc(C(=O)O)cc3)c2)cc1	.	-1.6	0.646	i	1.9	-0.7	-4.5
COc1ccc(Br)c(C(=O)NCCC(C)C)c1	.	2.6	0.715	i	0.2	1.8	-2.0
COc1ccccc1CNC(=O)C1CCC(CNS(=O)(=O)c2cccc3cccnc23)CC1 (stereo not given)	.	2.1	0.673	i	4.1	-5.5	0.6
CCCCCCCCNS(=O)(=O)CCNCCc1ccccc1	.	.	.	.	.	1.5	-3.8
CC1CN(CCn2cnc3c(N)ncnc32)CC(C)O1 (stereo not given)	3.9%	4.9	0.658	i	3.3	3.4	4.1
Cc1noc(C)c1COc1ccccc1C(=O)NCc1ccco1	2.3%	2.0	0.694	i	.	-2.8	0.3
COc1ccc(-n2cnc3c(cnn3CCC#N)c2=N)cc1	0.2%	-2.4	0.697	.	4.5	2.9	.
CCN(CC(=O)Nc1ccc(OC)cc1)C(=O)c1ccc2c(c1)NC(=O)CS2	1.1%	3.3	0.674	i	.	2.5	-1.0
O=C(CN1CCN(c2ccccc2O)CC1)NC(=O)NCc1ccccc1	-3.4%	3.5	0.635	i	.	3.3	2.4
Cc1ccc(OCC(=O)N2CCN(C(=O)Cc3ccccc3)CC2)cc1	-6.4%	0.0	0.707	.	-6.4	-5.0	.
COc1cc(C(=O)NC(=S)Nc2nc(-c3ccc(F)cc3)cs2)cc(OC)c1OC	.	4.1	0.711	i	-3.3	-1.4	-0.1
COC(=O)Nc1ccc(SCC(=O)c2cccc([N+](=O)[O-])c2)cc1	.	11.2	0.712	i	0.2	-2.0	0.3
CCC1CCCCN1CCCn1c(=S)[nH]c2ccccc2c1=O (stereo not given)	25.4%	1.5	0.775	.	2.3	9.1	.
Cc1cc(C)c(C)c(OCC(=O)NCCN(C)C)c1	6.3%	2.7	0.704	.	-0.5	0.3	.
Cc1ccc(-c2cn(-c3ccccc3)c3[n+]2CCCS3)cc1	-3.6%&17.6%	4.2&4.0	0.666&0.752	i	-1.7&0.9	-4.7&0.1	-2.1
CCCN(C(=O)c1cccc(S(=O)(=O)N2CCN(C)CC2)c1)c1c(N)n(Cc2ccccc2)c(=O)[nH]c1=O	.	-1.6	0.672	i	.	0.5	-0.1
Cc1cccc(C(=O)N[C@H](C(=O)Nc2nccs2)C(C)C)c1	0.3%	-0.2	0.653	i	-2.5	0.3	3.6

Arranged by SMILES length (ascending): some entries from above.
SMILES	Vif A3G	UCH37 inh	Ecoli growth	FGF22 binding	RanGTP-Impb inh	HNF4A DNA FP	AF4-AF9 inh
CC1CN(CCn2cnc3c(N)ncnc32)CC(C)O1 (stereo not given)	3.9%	4.9	0.658	i	3.3	3.4	4.1
Cc1noc(C)c1COc1ccccc1C(=O)NCc1ccco1	2.3%	2.0	0.694	i	.	-2.8	0.3
Cc1ccc(-c2cn(-c3ccccc3)c3[n+]2CCCS3)cc1	-3.6%&17.6%	4.2&4.0	0.666&0.752	i	-1.7&0.9	-4.7&0.1	-2.1

Continuation:
SMILES	Vif A3G	UCH37 inh	Ecoli growth	FGF22 binding	RanGTP-Impb inh	HNF4A DNA FP	AF4-AF9 inh
Cc1ccc(-c2nc(N)n(C(=O)Cc3ccccc3)n2)cc1	2.6%	4.4	0.727	.	-0.7	1.0	.
Oc1ccc2ccccc2c1Br	1.0%	1.7	0.639	i	0.2	0.1	0.4
CCN1C(=O)c2ccccc2S(=O)c2ccc(C(=O)NCc3ccc(OC)cc3)cc21 (stereo not given)	.	0.0	0.715	i	3.8	2.2	-3.5
CC(OC(=O)CSc1ccccc1)C(=O)NC1CCCCC1C (stereo not given)	4.3%	0.8	0.678	.	.	-4.4	-11.0
CCOC(=O)Cc1csc(SCC(=O)Nc2ccc(C)cc2F)n1	6.3%	0.7	0.684	i	.	2.0	-14.9
CC1(C)Cc2c(c(-c3ccco3)nc3n[nH]c(N)c23)CO1	16.3%	3.8	0.629	.	0.4	2.3	.
O=C(C1CCCN(Cc2ccccc2)C1)N1CCCCC1 (stereo not given)	-3.3%	2.9	0.723	.	-4.8	0.1	.
CC(C)c1ccc(NC(=S)Nc2ccc(OC(F)(F)F)cc2)cc1	-6.3%	2.0	0.652	i	-3.4	2.5	0.3
O=C1NC[C@H](CCCCN2C[C@H](Cc3ccc(O)cc3)N(CCc3ccc(O)cc3)C(=O)C2=O)N(CC2CCCCC2)C1=O	.	.	.	i	.	-5.6	3.2
COc1cccc(OC)c1NC(=O)NC(=O)c1c(OC)c(Br)cc([N+](=O)[O-])c1OC	-1.3%	4.6	0.714	i	-0.4	-1.7	.
COC(=O)CN(C#N)c1nc(NCc2ccccc2)nc(OC)n1	.	4.8	0.717	i	3.1	2.8	3.0
Cc1nc2ccccc2n1CC(O)COc1ccccc1Cl (stereo not given)	1.4%	1.0	0.652	i	-2.1	3.0	-6.1
O=C(c1ccccc1)N1CCCN(c2nccc(C(F)(F)F)n2)CC1	4.2%	-2.0	0.686	i	0.4	-0.9	-0.7
Cc1cccc(NC(=O)C[n+]2cccc(C)c2)c1	.	2.6	0.676	i	0.0	-2.6	-0.3
COc1cc(S(=O)(=O)Nc2ccccc2N2CCCCC2)ccc1NC(C)=O	.	0.6	0.681	.	.	4.0	3.0
CC1(C)SCC(C(=O)O)NC1=O (stereo not given)	10.2%	-1.6	0.663	i	2.9	-0.1	-0.2
COc1ccc(Cl)cc1NC(=O)CN(C)C(=O)c1sccc1-c1ccccc1	5.1%	3.0	0.651	i	.	2.0	-4.3
O=C(Nc1cc(S(=O)(=O)N2CCCCC2)ccc1Cl)c1ccncc1	20.0%	.	.	i	.	2.8	1.3
CCN(C[C@H]1N[C@@](CC)(C(=O)OC)[C@H]2C(=O)N(C)C(=O)[C@@H]12)C(=O)C1CCCCC1	-1.8%	0.8	0.711	i	.	-1.1	0.3
COC(=O)C(CC(C)C)NC(=O)c1ccc(F)cc1 (stereo not given)	-1.3%	3.9	0.665	i	-0.6	-1.1	-1.3
CCC1CCc2c(sc(NC(=O)c3cccnc3)c2C(N)=O)C1 (stereo not given)	8.1%	-131.3	0.714	i	-0.8	2.1	-0.8
COc1ccc(OCc2nc3c4c(ncn3n2)-c2ccccc2CC42CCCC2)cc1	18.9%	-7.7	0.652	.	1.5	-2.3	.
O=C(COc1ccc(Br)cc1)N(Cc1ccco1)C1CCS(=O)(=O)C1 (stereo not given)	.	4.9	0.664	i	-0.7	0.4	2.8
CN1C(=O)OC2(C)CCc3ccccc3C12C (stereo not given)	5.0%	3.9	0.701	.	-0.8	0.5	.
CC(C)C(NC(=O)CSCc1ccc([N+](=O)[O-])cc1)C(C)C	18.2%	6.4	0.693	i	-3.8	3.5	0.9
CC1(c2nnnn2Cc2ccccc2)CCC(=O)N1Cc1cccnc1 (stereo not given)	.	.	.	i	.	2.2	-4.7
CCn1cc(NC(=O)Nc2ccccc2C(=O)OC)c(C(N)=O)n1	24.9%	2.5	0.632	.	4.0	-5.3	.
Cc1nnc(Cn2cnc3c2c(=O)n(C)c(=O)n3C)o1	-6.2%	4.9	0.709	i	1.5	1.7	0.9
CCOC(=O)c1c(NC(=O)c2ccccc2C(=O)O)sc2c1CCCC2	.	5.5	0.663	i	3.2	-6.3	-3.4
O=C(NCC1CCCO1)C1c2ccccc2Oc2ccccc21 (stereo not given)	.	1.8	0.661	i	-2.8	-0.8	-0.2
Cc1ccc2c(c1)c1c(c(=O)n(-c3ccccc3)c(=O)n1CC(=O)NCC1CCCO1)n2C (stereo not given)	.	i	0.701	i	?	4.1	-1.2
COCCn1ccc(O)c(Cc2ccc(Cl)cc2)c1=O	-4.0%	-3.3	0.731	.	9.0	2.5	.
Cc1ccc(S(=O)(=O)/C(C#N)=C/c2c(N3CCN(Cc4ccccc4)CC3)nc3ccccn3c2=O)cc1	-8.1%	2.6	0.675	i	-0.9	8.6	7.1
CC1=NN(c2ccc(C(=O)O)cc2)C(=O)/C1=C/c1ccc(-c2ccccc2F)o1	13.1%	.	.	.	0.1	-5.9	.
CC(=O)NCCc1cc2cc(C)c(C)cc2[nH]c1=O	27.6%	-9.7	0.706	.	1.6	-1.1	.
O=C(NCC1CCCO1)c1cn(Cc2ccccc2)nc1-c1ccc(Cl)cc1 (stereo not given)	-0.5%	4.2	0.679	i	.	-1.8	3.5
COc1ccc(-n2c(Cc3cccn3C)nnc2SCC(=O)Nc2ccccc2C)cc1	4.0%&-4.1%	5.4	0.723	i	-2.2	-2.1	1.5
CCOC(=O)c1[nH]c(C)c(C(=O)OCC(=O)N(C)C2CCS(=O)(=O)C2)c1C (stereo not given)	-1.2%	-2.3	0.65	.	6.4	5.8	0.5
Nc1cc(N)nc(SCC(=O)N2CCN(C(=O)c3ccco3)CC2)n1	7.5%	2.6	0.684	.	1.1	-0.3	.
C=Cc1cc2c(cc1O)CCC1C2CCC2(C)C(O)CCC12 (stereo not given)	1.9%	.	.	i	.	-4.3	4.7
COC(=O)[C@]12CCCCC=C1N(CCC1=CCCCC1)C(=O)[C@H](CC(=O)N1CCN(C(=O)c3ccco3)CC1)C2	.	.	.	i	.	10.7	5.5
COC(=O)CSc1nsc(SCC(=O)OC)c1C#N	3.5%	3.5	0.63	.	1.2	21.2	.
O=C1Nc2ccccc2N(O)N1c1cc(-c2cccc(Cl)c2)no1	-2.2%	2.5	0.682	.	2.1	-2.7	.
COc1ccccc1CCC(=O)Nc1cc(S(=O)(=O)N2CCOCC2)ccc1N1CCCC1	-0.8%	2.4	0.678	i	-0.4	-0.9	3.1
S=C(NCc1ccccn1)Nc1ccccc1Cl	-8.1%	4.1	0.726	.	4.9	-2.5	.
COC(=O)c1cc(-c2ccccc2)n(CCN)c1C	.	-5.2	0.644	i	-3.5	5.5	6.8
Cc1cc(N2CCN(C)CC2)nc2ccc(NC(=O)c3cccnc3Cl)cc12	-0.2%	4.4	0.723	.	-0.4	3.2	.
O=C(c1cc(S(=O)(=O)N2CCOCC2)ccc1Cl)N1CCC(Cc2ccccc2)CC1	-10.1%	4.3	0.68	i	-1.8	-2.0	-20.0
Cc1cc(C)n(CCNC(=O)[C@H]2O[C@@H](n3ccc(=O)[nH]c3=O)[C@H](O)[C@@H]2O)n1	.	.	.	i	.	0.4	0.5
COc1cc2ccccc2cc1C(=O)Nc1cc(C)ccn1	.	-16.4	0.692	i	4.5	1.9	-2.2
Cc1ccc(NC(=O)COc2ccccc2C=O)cc1Cl	?	4.8	0.693	i	-0.9	-7.8	-2.2
CCC/C=C1/CCCOC(C(=O)NCc2ccccc2)(C(F)(F)F)C1 (stereo not given)	.	0.4	.	i	8.4	-3.1	-2.2
O=C1CC(SCc2nc3ccccc3[nH]2)C(=O)N1c1ccc(F)c(Cl)c1 (stereo not given)	8.2%	1.6	0.704	.	13.6	6.0	.
Cn1nnnc1SCc1cn2cccnc2n1	-1.5%	-74.5	0.737	.	2.0	-0.3	.
O=C(OCc1nnc(-c2ccc(Br)cc2)o1)c1cncc(Br)c1	.	-1.3	0.655	i	-2.3	-2.1	-0.6

Screens from PubChem BioAssay.
